LASV entry inh: blocks Lassa virus binding to or entry into cells. Lassa virus pseudotype entry inhibition, cell reporter; control for the full effect not named in the record. Potency, µM (titrated, usually from 37.9 µM), without a hit: top-dose activity change, negative = inhibition, most hits filed as inhibitors. hit rate 1.2% among 300,000; active means well fitted inhibition curve with a large enough effect; inconclusive means small, poorly fitted or top-dose-only effect, or effect the other way; inactive means flat fitted curve, though single readings scatter; tested in HEK293 cells; further: on the % scale 0 is the no-effect control and ±100 the full control effect; nearly all actives have a fitted effect of over 50% in size; luciferase read-out
Cruzain inh noDet: inhibitors of Trypanosoma cruzi cruzain without detergent; P25779; purified cruzain, Z-FR-AMC fluorescence, no detergent; Potency, µM, for inactives: max response, negative = inhibition, most hits filed as inhibitors; hit rate 2.3% among 200,000;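 further: plate controls were enzyme without inhibitor for no effect and buffer without enzyme for full effect; nearly all actives have a fitted effect of over 40% in size; top concentration of the series not given in the record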
Target sequence (P25779 123-467 limits assumed): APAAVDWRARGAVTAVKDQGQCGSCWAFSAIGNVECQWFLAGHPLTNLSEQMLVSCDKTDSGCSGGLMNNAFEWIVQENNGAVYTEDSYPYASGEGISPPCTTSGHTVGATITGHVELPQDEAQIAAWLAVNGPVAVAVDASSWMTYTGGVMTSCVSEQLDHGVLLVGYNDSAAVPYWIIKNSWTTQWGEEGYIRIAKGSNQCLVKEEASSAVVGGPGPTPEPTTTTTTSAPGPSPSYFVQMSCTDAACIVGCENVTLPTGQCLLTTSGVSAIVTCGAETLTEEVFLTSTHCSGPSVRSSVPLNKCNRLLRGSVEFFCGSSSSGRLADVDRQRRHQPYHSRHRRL
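Purified cruzain at 1.5 nM, pre-incubated 15 min with compound at room temperature in 100 mM sodium acetate pH 5.5, 5 mM DTT, 0.00005% Triton X-100. Reaction started with 2 uM Z-FR-AMC; AMC fluorescence increase over 60 s gives rate.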
NS1 function inh: inhibitors of influenza NS1 protein function; hit rate 0.4% among 270,000; S. cerevisiae slowed by influenza A NS1, growth recovery by OD600; Potency, µM (series often up to 46.1 µM), for inactives: top-dose activity, positive = more growth; active means well fitted rising curve with a large enough effect; inconclusive means small, poorly fitted or top-dose-only effect; inactive means no such curve, though single readings can be large or run the other way; further: nearly all actives have a fitted effect of over 50% in size
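In this qHTS, NS1 from influenza A is expressed in budding yeast, where it slows growth. Cells are switched from glucose to 2% galactose medium (pH 6.0, -URA), treated with compound, and growth recovery is read at OD600.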
StopGo reporter: FMDV 2A StopGo reporter, luciferase signal | hit rate 1.2% among 410,000 | Potency, µM (top dose mostly 57.9 µM), for the others: at the highest dose signal change, negative = less light | human cells with a luciferase reporter of 2A StopGo recoding; control for the full effect not named in the record; active = well fitted falling curve with a large enough effect; inconclusive = small, poorly fitted or top-dose-only effect; inactive = no such curve, though single readings can be large or run the other way; tested in HEK293T cells; further: on the % scale 0 is the no-effect control and ±100 the full control effect; nearly all actives have a fitted effect of over 45% in size; luciferase light after 4 h
Marburg entry inh: blocks Marburg virus binding to or entry into cells; Marburg virus pseudotyped entry inhibition, cell reporter; control for the full effect not named in the record; about a third of the inactives were read at about 46 µM; Potency, µM (top dose mostly 37.8 µM), for the others: top-dose activity change, negative = inhibition, most hits filed as inhibitors; hit rate 1.8% among 300,000; AID 540276; active = well fitted inhibition curve with a large enough effect; inconclusive = small, poorly fitted or top-dose-only effect, or effect the other way; inactive = flat fitted curve, though single readings scatter; tested in HEK293 cells; about a fifth of its hits are not listed in these tables; further: on the % scale 0 is the no-effect control and ±100 the full control effect; luciferase read-out
RE007 growth inh: less growth of the S. pombe RE007 Vpr strain; S. pombe RE007 Vpr strain, BacTiter-Glo ATP luminescence, 24 h; control for the full effect not named in the record; Potency, µM (titrated, usually from 92.2 µM), inactives show top-dose activity change, negative = less growth; hit rate 0.21% among 360,000; AID 651644; active = well fitted falling curve with a large enough effect; inconclusive = small, poorly fitted or top-dose-only effect; inactive = no such curve, though single readings can be large or run the other way;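 further: on the % scale 0 is the no-effect control and ±100 the full control effect; nearly all actives have a fitted effect of over 50% in size; the assay follows cell death caused by Vpr and the record does not say whether a fall means rescue or toxicity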
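Fission yeast RE007 carrying one integrated HIV-1 vpr copy, seeded at OD 0.01 in PMG+AL medium with 23 nL pinned compound. Grown 24 h at 30 degrees; viability read by BacTiter-Glo luminescence after 5 min.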
Cruzain inh Det: cruzain (T. cruzi) inhibition with detergent; P25779; purified cruzain, Z-FR-AMC fluorescence, 0.01% Triton; Potency, µM, inactives show max response, negative = inhibition, actives largely listed as inhibitors; hit rate 0.43% among 200,000; AID 1478;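 further: plate controls were neutral wells for no effect and buffer without enzyme for full effect; nearly all actives have a fitted effect of over 40% in size; top concentration of the series not given in the record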
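Steps: dispense cruzain (1.5 nM final) in acetate buffer pH 5.5 with DTT and 0.01% Triton X-100; pin-transfer compounds; incubate 15 min RT; add Z-FR-AMC (2 uM final); read fluorescence every 30 s, using the 60 s intensity change.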
SARS PLpro yeast: blocks SARS-CoV papain-like protease in a yeast assay | S. cerevisiae expressing SARS-CoV PLpro, growth rescue; control for the full effect not named in the record | Potency, µM (top dose mostly 32.9 µM), inactives show at the top dose activity, positive = growth rescue | hit rate 0.19% among 330,000 | AID 485353; active means well fitted rising curve with a large enough effect; inconclusive means small, poorly fitted or top-dose-only effect; inactive means no such curve, though single readings can be large or run the other way; further: 0% is about no effect; nearly all actives have a fitted effect of over 55% in size; growth read by luminescence after 48 h
* marks the source's active call; other numbers are inactive results; ? = inconclusive; / = not tested or not shown; & = joins results of further samples; [ ] = dose if it differs, or a comment. Unless noted, the call rests on the fitted dose curve; in most records, active means well fitted curve in the direction sought with a large enough effect; inconclusive means small, poorly fitted or top-dose-only effect, or another doubt; inactive means no such curve, though single readings can be large; an effect the other way counts as inactive or inconclusive. Potency means the concentration at half of the fitted maximal effect.

SMILES | LASV entry inh | Cruzain inh noDet | NS1 function inh | StopGo reporter | Marburg entry inh | RE007 growth inh | Cruzain inh Det | SARS PLpro yeast
Cn1c(SCC(=O)N2CCCc3ccccc32)nnc1-c1cccs1 | 5% | -8% | -1% | -16% | -5% | 6% | 2.0% | 4%
CC(C)CN1C(=O)N(c2ccc(Cl)cc2)C(C)(O)CC1(C)C (stereo not given) | -35%[46.1 µM] | / | -2% | -19% | -21%[46.1 µM] | 2% | / | 0%
CCN(Cc1ccccc1)S(=O)(=O)c1ccc(S(=O)(=O)N(Cc2cccc(OC)c2)CC2CCCO2)cc1 (stereo not given) | -23% | -21% | 14% | 1% | ? | 17% | 4.2% | -1%
COc1ccccc1CC(=O)NC(=O)c1ccccc1O | ? | / | -41% | 3% | ? | 20% | / | -5%
Cc1ccc2c(CC(=O)N3CCc4ccccc43)coc2c1 | -24% | 0% | -2% | 63%[activator] | ? | 1% | -9.8% | -1%
O=C(Nc1ccc(-c2nnc3n2CCCCC3)cc1)c1cc2ccccc2o1 | 8% | 4% | 4% | -27% | -6%[46.1 µM] | 27% | -3.5% | 0%
Cc1ccccc1Nc1nnc(-c2ccc(C)c(S(=O)(=O)N3CCOCC3)c2)c2ccccc12 | ? | 0% | / | ? | / | / | -0.5% | /
O=C(Nc1ccc2nc(SCC(=O)N3CCc4ccccc43)sc2c1)c1cccc(Cl)c1 | -6%[46.1 µM] | ? | / | -11% | 24%[46.1 µM] | / | -0.7% | /
COc1ccc([N+](=O)[O-])cc1NC(=O)Cc1ccc(Cl)cc1 | -19% | 1% | 1% | ? | ? | 5% | -4.7% | -15%
COc1ccc(C=NNc2nc3c([nH]2)c(=O)n(C)c(=O)n3C)cc1 | -29%[46.1 µM] | / | / | -11% | ? | 7% | / | /
CC1CC(C(F)F)n2nc(C(=O)O)cc2N1 (stereo not given) | 8% | -1% | -1% | -2% | 1% | -4% | 0.3% | 13%
CCn1cc([N+](=O)[O-])nc1C | 16% | 1% | -9% | -16% | ? | 5% | -3.6% | 14%
COC(=O)C1=C(C)N=C2SCCC(=O)N2C1c1cccs1 (stereo not given) | 1% | 1% | -26% | -1% | -1% | 7% | -2.0% | -7%
O=C(CN1CCCCC1)n1c2ccccc2c2ccccc21 | 21% | / | -3% | -16% | -3%[14.2 µM] | -26% | / | 0%
COc1ccc2c(c1)CCc1c(C(=O)Nc3c(C)nn(Cc4ccc(Cl)c(Cl)c4)c3C)noc1-2 | -1%[46.1 µM] | ? | / | ? | 4%[46.1 µM] | / | -3.0% | /
CCOc1ccc(S(=O)(=O)N2CCCCC2)cc1NC(=O)CSCc1c(C)noc1C | -31% | / | / | 6% | -21% | -3% | / | -7%
CCN1CCc2c(sc(NC(=S)NC(=O)c3ccco3)c2C(N)=O)C1 | 19% | / | -5% | 5% | 28%[46.1 µM] | ? | / | -2%
COc1cc(C(=O)NCC(=O)OCC(=O)c2cccc3ccccc23)cc(OC)c1OC | / | / | -9% | -9% | / | -3% | / | -8%
Cn1cc(-c2cc3n(n2)CCC(=O)N3CC(=O)O)c2ccccc21 | 16%[46.1 µM] | 11% | / | 16% | 27%[46.1 µM] | / | -1.6% | /
O=C(c1noc2c1CCCC2)N1CCCCC1 | 2% | 5% | -10% | 20% | 23% | ? | 2.0% | 4%
Cc1cccc(N2CCN(C(=O)c3ccncc3)CC2C)c1 (stereo not given) | ? | -2% | 2% | -17% | ? | -18% | 0.5% | 10%
CC(=O)Nc1c(Cl)cc2c(c1Cl)C(=O)c1ccccc1-2 | ? | / | / | 17% | -9% | -4% | / | /
Cc1ccc(-c2cc(C(=O)NCCc3ccccc3)c3c(-c4ccc(C)cc4)[nH]nc3n2)cc1 | 0%[46.1 µM] | -9% | / | 22% | / | / | 0.8% | /
Cc1onc(-c2ccccc2Cl)c1C(=O)Nc1ccccc1 | -11% | 10% | 6% | ? | 19%[46.1 µM] | -12% | -3.5% | 3%
Cc1cc(NC(=O)CSc2nc3cc4c(cc3c(=O)n2CCc2ccccc2)OCO4)no1 | -2% | ? | 13µM* | -1% | 9% | 4% | 2.0% | 0%
Cc1cc(-c2nc3ccccc3s2)ccc1N | 3.5µM* | / | / | -73% | ? | -1% | / | /
Nc1nc(N)nc(-c2cccc(Br)c2)n1 | 16% | / | / | 22% | ? | -7% | / | /
N#CCC(=O)N/N=C/c1ccc(N2N=C(c3ccccc3)CC2c2ccccc2)cc1 (stereo not given) | -22%[46.1 µM] | / | 1.1µM* | ? | -15%[46.1 µM] | 3% | / | 0%
C=CCNC(=O)c1onc(CSc2cccc(C)c2)c1C(=O)O | / | -5% | 6% | -15% | / | -6% | 1.6% | -6%
O=[N+]([O-])c1ccccc1/C=C/CN1CCC(O)CC1 | / | / | -2% | -9% | / | 13% | / | -2%
O=C(O)COc1ccccc1C=NNC(=O)c1ccc(NS(=O)(=O)c2cccs2)cc1 | 18% | / | / | 7% | 2% | 1% | / | 4%
CN(Cc1ccc2nonc2c1)Cc1nc(CC2CC2)no1 | 22% | / | 2% | -6% | 2%[46.1 µM] | 3% | / | 0%
Fc1cccc(NC(=S)NNc2ccccc2)c1 | / | / | -48% | 61%[activator] | / | -12% | / | -11%
CC(=O)c1ccc(NC(=O)CN2CCC(NC(=O)C3CCCCC3)CC2)cc1 | 3% | / | 1% | 14% | 22% | 1% | / | -1%
CCOc1ccc(C(=O)NCC(=O)OCC(=O)NC2CCCC2)cc1 | 3% | / | 2% | -11% | -23%[46.1 µM] | 9% | / | 1%
CCN(CC)CCc1c(C)[nH]c(C(=O)OCc2ccccc2)c1C | -9% | 6% | 2% | 7% | 26µM* | -12% | 5.8% | -8%
Cc1ccc(NC(=O)CS(=O)CC(=O)N(CC(=O)NC2CCCC2)c2ccc3c(c2)OCCO3)cc1 (stereo not given) | -22% | / | -1% | -7% | -2%[46.1 µM] | 18% | / | -2%
Cn1c(CCN2CCCCC2)nc2cc(NC(=O)C3CCCCC3)ccc21 | 4% | 1% | 0% | -4% | 0% | -21% | 2.2% | 3%
O=c1[nH]c2c(c(=O)n1Cc1ccccc1)CCC2 | -2% | -5% | 7% | 0% | 3%[46.1 µM] | 14% | 0.7% | 1%
O=c1oc2c(F)cc(F)cc2cc1S(=O)(=O)c1ccc(F)cc1 | -27%[46.1 µM] | 34% | / | ? | 15%[46.1 µM] | / | 1.8% | /
S=C(Nc1ccc2c(c1)OCCO2)Nc1ccccc1Cl | 3%[46.1 µM] | / | -3% | 28% | 24%[46.1 µM] | -1% | / | 0%
CC(=O)OCC(=O)Nc1ccccc1OC(F)F | 9%[46.1 µM] | / | -1% | -12% | 1%[46.1 µM] | 5% | / | 2%
CC(NC(=O)Nc1cccnc1)(C(F)(F)F)C(F)(F)F | 3% | 3% | 2% | 4% | 5% | 9% | 1.7% | 0%
O=C(Nc1ccccc1)C1=C[C@H](c2coc3ccccc3c2=O)C[C@H](OCc2ccc(CO)cc2)O1 | / | / | 5% | -20% | / | 14% | / | -2%
CCCc1nn(C)c2c(=O)[nH]c(-c3cc(S(=O)(=O)N(CCO)CCO)ccc3OCC)nc12 | / | / | 3% | -6% | / | 0% | / | -1%
CCOc1ccccc1NC(=O)NNS(=O)(=O)c1ccc([N+](=O)[O-])cc1 | 9% | / | 9% | -19% | -13% | 4% | / | 5%
CN(C)c1ccc([N+](=O)[O-])cc1C(=O)NCC(c1ccco1)N(C)C (stereo not given) | 8% | / | -8% | -1% | 0%[46.1 µM] | -26% | / | 1%
O=C(CCn1cnc2onc(-c3ccc(F)cc3)c2c1=O)Nc1cccc(C(F)(F)F)c1 | -29%[46.1 µM] | -1% | / | -19% | / | / | -11% | /
Cn1cnnc1SCC(=O)Nc1c(F)cc(F)cc1Br | -1% | 1% | -4% | 12% | 15% | -6% | 1.2% | -11%
CC(=O)Nc1ccc(OC/C=C(\C)Cl)cc1 | 5% | 0% | -21% | / | 5% | 3% | 1.0% | -2%
O=C(Nc1ccn(Cc2c(F)c(F)cc(F)c2F)n1)c1ccc(COc2cc(Cl)ccc2Cl)o1 | 10% | ? | -3% | ? | -22% | -11% | -3.5% | 4%
COc1cccc(NP(=O)(Oc2ccc(Cl)cc2)Oc2ccc(Cl)cc2)c1 | ? | -7% | -4% | 0% | ? | 29% | -1.9% | -25%
Cn1c(NC(=O)/C=C/c2c(F)cccc2Cl)cc(=O)n(C)c1=O | 17% | / | / | 20% | ? | 2% | / | -3%
COc1ccc(CCN(C(=O)C(F)(F)F)C(C(=O)NC2CCCCC2)c2ccc(C)s2)cc1 (stereo not given) | ? | 4% | 7% | / | -1% | -6% | -2.3% | -5%
S=c1nc[nH]c2c1[nH]c1ccccc12 | 4% | -9% | 19% | 22% | 8% | 8% | -3.5% | -9%
Cc1ccc(-c2nc3ccccc3c(=O)n2-c2nccs2)cc1 | 0% | -9% | -2% | -9% | -7% | -2% | 2.5% | 6%
COc1ccc(NC2CCCN(C(=O)c3ccc4[nH]c(C)c(C)c4c3)C2)cc1 (stereo not given) | ? | / | 0% | 0% | -12%[46.1 µM] | 10% | / | -1%
O=C(NC(=O)N1CCCCCC1)c1ccc(Cl)cc1 | 8%[46.1 µM] | / | 4% | 10% | 1%[46.1 µM] | 5% | / | 27%
COc1ccc(C(=O)OC2CCCCC2CN(C)C)cc1 (stereo not given) | / | / | 2% | -3% | / | -12% | / | -1%
CNC(=O)CNC(=O)Nc1ccc(Cl)c(Cl)c1 | 4%[46.1 µM] | / | 4% | -6% | -3%[46.1 µM] | 26% | / | -1%
Cc1cccc(C2=NN(c3ccc(Br)cc3)[C@@H](C(=O)N3CCOC3=O)[C@@H]2c2ccc(F)cc2)c1 | -24% | 18µM* | ? | -18% | -26% | -12% | -14%&-14% | 4%
Cc1cc(C)c(S(=O)(=O)N2CCN(C(=O)CCOc3ccccc3C)CC2)c(C)c1 | -5% | / | / | -21% | -15% | 5% | / | 0%
CCC(Sc1nc(N)cc(N)n1)C(=O)O (stereo not given) | 1% | -6% | 11% | -21% | ? | -4% | -2.8% | 2%

Assay outcomes (PubChem BioAssay)
